D2 PAM – positive allosteric modulators of human D2 dopamine receptor; P14416; DiscoveRx D2 beta-arrestin cells, luminescence, 90 min; 100% = 57 uM dopamine signal; potentiation, % (test concentration not listed); 0.23% of 360,000 active; AID 624464; active = potentiation of 50% or more; inconclusive = 30% to 50%; inactive = 30% or less;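 also: compound concentration not given in the record; tested on top of an EC20 dose of dopamine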
Target sequence (P14416 whole entry, looked up): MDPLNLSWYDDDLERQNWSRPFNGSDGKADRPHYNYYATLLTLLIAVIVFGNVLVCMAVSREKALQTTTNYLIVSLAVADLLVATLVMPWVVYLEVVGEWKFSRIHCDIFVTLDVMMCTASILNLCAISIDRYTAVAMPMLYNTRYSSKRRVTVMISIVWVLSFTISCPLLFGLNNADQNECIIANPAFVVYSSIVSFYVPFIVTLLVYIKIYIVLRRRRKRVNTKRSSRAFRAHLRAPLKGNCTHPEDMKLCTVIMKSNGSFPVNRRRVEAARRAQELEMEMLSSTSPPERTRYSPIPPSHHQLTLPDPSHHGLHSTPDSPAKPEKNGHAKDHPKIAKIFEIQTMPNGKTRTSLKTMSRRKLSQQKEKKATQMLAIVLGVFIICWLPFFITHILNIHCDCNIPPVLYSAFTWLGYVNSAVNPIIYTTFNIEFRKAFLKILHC
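PathHunter beta-arrestin assay in DiscoveRx D2 cells. Compounds were added with an EC20 of dopamine (50 nM final) for 90 min at 37 deg C. Luminescence was read 1 h after detection reagent, with 57 uM dopamine as the EC100 control.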
CtBP-E1A inh – inhibitors of CtBP/E1A interaction. AlphaScreen GST-E1A/His-CtBP binding, 1536-well; active compounds read low; control for the full effect not named in the record. activity change, % (concentration not given with the values). 0.49% of 340,000 active. AID 651724; in the data active means activity change below about -65%; inconclusive means about -30% to -65%; inactive means above about -30%; also: % is scaled to controls: 0 for no effect and ±100 for the full control effect
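Homogeneous bead-based format: GST-tagged E1A captured on glutathione donor beads, His-tagged CtBP on nickel acceptor beads; compounds precede bead addition by 2 h at 37 °C.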
TRPML1 blocker – inhibitors of human TRPML1 channel. TRPML1-inducible cells, Ca2+ dye fluorescence, FDSS; active compounds read low; inhibition of EC80 agonist-evoked calcium signal. activity change, negative = inhibition, % (test concentration not listed). 0.02% of 390,000 active; in the data active means activity change below about -50%; inconclusive means about -30% to -50%; inactive means above about -30%;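 also: stimulus is agonist 54-4 at its EC80 concentration; % is scaled to controls: 0 for no effect and ±100 for the full control effect; compound concentration not given in the record; the text of the record puts the active cut at -80%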
Target sequence (Q9GZU1 whole entry, looked up): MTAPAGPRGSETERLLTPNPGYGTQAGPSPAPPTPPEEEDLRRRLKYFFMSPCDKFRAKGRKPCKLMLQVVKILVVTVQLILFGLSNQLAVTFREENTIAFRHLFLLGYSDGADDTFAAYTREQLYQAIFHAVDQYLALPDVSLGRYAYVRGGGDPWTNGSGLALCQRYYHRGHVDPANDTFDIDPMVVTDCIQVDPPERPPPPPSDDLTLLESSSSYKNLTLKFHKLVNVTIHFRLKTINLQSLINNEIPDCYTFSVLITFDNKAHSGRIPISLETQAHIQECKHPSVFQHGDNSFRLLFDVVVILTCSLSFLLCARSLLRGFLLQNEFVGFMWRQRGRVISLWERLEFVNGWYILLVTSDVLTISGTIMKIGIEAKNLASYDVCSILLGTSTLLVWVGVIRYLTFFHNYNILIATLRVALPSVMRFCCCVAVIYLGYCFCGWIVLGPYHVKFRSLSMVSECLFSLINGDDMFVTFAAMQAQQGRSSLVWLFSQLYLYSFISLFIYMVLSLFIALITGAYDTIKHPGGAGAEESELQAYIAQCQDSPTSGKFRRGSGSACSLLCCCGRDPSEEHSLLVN
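Calcium fluorescence in TRPML1-DL cells induced overnight with Tet: a 110 s read after compound pin addition, then a 110 s antagonist read after challenge with 54-4 at 4 uM final (EC80).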
TRPML1 ag – activates the human TRPML1 channel; Q9GZU1; TRPML1-expressing cells, Ca2+ dye fluorescence, FDSS; host cell line not named in the record; reference of the full effect not given here; activation, % (test concentration not listed); 0.12% of 410,000 active; in the data active = activation above about 50%; inconclusive = about 30% to 50%; inactive = below about 30%; also: 0% is about no effect; the text of the record puts the active cut at 80%
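TRPML1-DL cells, Tet-induced overnight (~16 h, 37 degrees C), loaded 45-90 min at room temperature with Ca8 no-wash calcium dye plus quencher. FDSS fluorescence: 10 s baseline, compound pin-transfer, 110 s agonist read, then EC80 54-4 (4uM final) and 110 s antagonist read.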
TRPV1 PAM – enhances activation of the human vanilloid receptor TRPV1. Q8NER1. TRPV1-expressing cells, Fluo-8 calcium influx, capsaicin EC20 potentiation; host cell line not named in the record; control for the full effect not named in the record. potentiation, % at 8.33 µM. 0.02% of 320,000 active. AID 540277; active means potentiation above 80%; inconclusive means 30% to 80%; inactive means below 30%; also: 0% is about no effect
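TRPV1-expressing cells were cultured overnight at 35.5C and loaded with Fluo-8 calcium dye for 40 to 90 min at room temperature. After a 10 s baseline, compound was added and calcium influx was read kinetically for 3 min (ex 480/em 520 nm).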
Six1-Eya2 inh – inhibitors of human Six1/Eya2 interaction. Q15475+O00167. AlphaScreen GST-Six1/His-Eya2 binding, biochemical; active compounds read low; control for the full effect not named in the record. activity change, % (concentration not given with the values). 0.56% of 360,000 active. AID 651725; in the data active = activity change below about -65%; inconclusive = about -30% to -65%; inactive = above about -30%; also: % is scaled to controls: 0 for no effect and ±100 for the full control effect
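Compounds are tested against tagged Six1 and Eya2 proteins bridged by glutathione donor and nickel acceptor beads; after a one-hour incubation at 37 °C without light, AlphaScreen emission is recorded.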
* marks the source's active call; other numbers are inactive results; ? = inconclusive; · = no result given; & = joins results of further samples. Random draw from the library, and some 0.95% of all compounds hit somewhere here.

Sequence of screens: D2 PAM	TRPML1 ag	Six1-Eya2 inh	TRPV1 PAM	CtBP-E1A inh	TRPML1 blocker
C#CCOCCOCCOCCNc1nc(N2CCN(C(=O)[C@H]([C@@H](C)CC)n3cc([C@@H](N)Cc4ccc(O)cc4)nn3)CC2)nc(N2CCN(C(=O)[C@H](Cc3cc4ccccc4[nH]3)n3cc([C@@H](N)CC(C)C)nn3)CC2)n1
    -16	-0.2	-15	5	-25	7
O=[N+]([O-])/C=C1\C=CC=CN1Cc1ccc(Cl)cc1
    1	1.0	-1	2	5	14
O=C(CSc1nn(-c2ccccc2)c(=S)s1)Nn1cnnc1
    -6	-0.1	5	-6	-6	-3
COc1ccc(NC(=O)CCS(=O)(=O)c2ccc3c(c2)oc(=O)n3C)cc1
    -5	-0.2	-7	17	-5	0
c1ccc(NCCc2ccccn2)cc1
    -5	-0.5	-1	·	2	-1
CC(C)C(NS(=O)(=O)c1ccc2c(c1)C(C)(C)C(=O)N2C)C(=O)NCc1ccccc1Cl (stereo not drawn)
    -2	-0.9	2	15	2	-3
Cc1cc(NC(=O)COC(=O)c2ccc(S(=O)(=O)C(F)F)cc2)n(-c2ccccc2)n1
    5	0.7	4	9	1	3
Cc1cc2nc[nH]c2cc1[N+](=O)[O-]
    -8	1.4	-3	?	17	10
CCCCOC(=O)c1ccc(NC(=O)CSC2=Nc3ccccc3C3CC=NN23)cc1 (stereo not drawn)
    -12	0.3	16	-1	23	3
O=C(Nc1cccnc1)c1cccc(S(=O)(=O)N2CCOCC2)c1
    -6	0.6	1	-5	0	-3
COc1ccc(Cl)cc1NC(=O)CNCC(c1ccccc1)N(C)C (stereo not drawn)
    -12	-0.1	-2	-7	-5	-19
FC(F)(F)c1cccc(-c2ccc(/C=N/Nc3nncc(-c4ccccc4)n3)o2)c1
    12	3.1	4	-17	·	9
O=C(CN1C(=O)NC2(CCCC2)C1=O)Nc1cccc(Cl)c1
    -2	0.2	-3	-9	13	10
COc1ccccc1NS(=O)(=O)c1cccc(NC(=O)NC2CCCCC2)c1
    -8	-0.5	-4	-4	-21	-1
O=C(NCCCN1CCOCC1)c1ccccc1NS(=O)(=O)c1ccc(F)cc1
    -2	-0.8	2	4	-17	27
C=C1CN(CC(=O)OC)S(=O)(=O)c2ccccc21
    -7	1.0&0.5	-17	7	-24	-15&15
CCOc1ccc(-c2nc(CSCC(=O)NCc3ccco3)c(C)o2)cc1
    -6	0.9	-20	-12	-11	-2
COC(=O)CCCC[C@@H]1SC[C@@H](NC(=O)OC)[C@@H]1NC(=O)OC
    8	1.7	5	-7	1	3
CCOc1ccc(C(=O)NCC(=O)NCCCn2nc(C)cc2C)cc1OCC
    -17	0.2	-6	1	10	-8
N#Cc1nc(Cc2cccc3ccccc23)oc1N1CCC(C(N)=O)CC1
    -9	0.2	-5	-13	-3	24
CC(=O)c1cccc(S(=O)(=O)N2CCCC(c3nc4c(nnn4Cc4cccc(Cl)c4)c(=O)[nH]3)C2)c1 (stereo not drawn)
    -5	0.5	-9	-12	-7	-13
COc1ccc(C(O)P(=O)(OCC(C)C)OCC(C)C)c(OC)c1 (stereo not drawn)
    -8	-0.3	1	-23	14	4
C/C(=N\O)C1CC(CC(=O)O)C1(C)C (stereo not drawn)
    -19	-0.3	6	22	·	15
COc1ccccc1N1CCN(C(=O)CSc2nnc3c4ccccc4n(CC(=O)O)c3n2)CC1
    -25	1.9	-9	8	3	38
CC1(C)CC[C@]2(C(=O)O)CC[C@]3(C)C(=CCC4[C@@]5(C)CC[C@H](O)C(C)(C)C5[C@H](O)C[C@]43C)[C@@H]2C1 (stereo partly drawn)
    -23	·	18	·	3	·
CC(=O)N1c2c(ccc3ccccc23)C(C)CC12CCCCC2 (stereo not drawn)
    -24	-0.3	3	-10	5	-3
O=C(CN1C(=O)COc2ccccc21)NC1CCCC1
    -3	0.5	-3	1	1	0
COc1ccc(O)c(C2=Nc3ccccc3N=C(c3ccco3)C2)c1
    9	1.1	3	-6	-3	31
N#CC1=C(SCC(=O)NCc2ccccc2)NC(=O)CC1c1ccco1 (stereo not drawn)
    -3	-1.0	0	9	1	-12
CCc1c(C)nc2ncnn2c1Nc1ccc(C)cc1
    -5	-0.2	-1	-2	0	36

Copied from the list.
COc1ccc(C(O)P(=O)(OCC(C)C)OCC(C)C)c(OC)c1 (stereo not drawn) @ CtBP-E1A inh: 14
N#CC1=C(SCC(=O)NCc2ccccc2)NC(=O)CC1c1ccco1 (stereo not drawn) @ TRPML1 ag: -1.0
COc1ccc(O)c(C2=Nc3ccccc3N=C(c3ccco3)C2)c1 @ D2 PAM: 9
CC(=O)N1c2c(ccc3ccccc23)C(C)CC12CCCCC2 (stereo not drawn) @ CtBP-E1A inh: 5
C/C(=N\O)C1CC(CC(=O)O)C1(C)C (stereo not drawn) @ D2 PAM: -19

Carrying on:
Sequence of screens: D2 PAM	TRPML1 ag	Six1-Eya2 inh	TRPV1 PAM	CtBP-E1A inh	TRPML1 blocker
COc1c(S(=O)(=O)Nc2cccnc2)ccc(Cl)c1Cl
    -8	-0.5	0	10	8	19
COc1ccc(C2C(C#N)=C(N)Oc3n[nH]c(C)c32)cc1Cn1cc([N+](=O)[O-])cn1 (stereo not drawn)
    -14	1.8	-7	11	1	15
COc1cc(C2C(C#N)=C(N)Oc3cc4c(cc32)OCO4)cc(OC)c1OC (stereo not drawn)
    -1	1.0	0	-1	-1	-20
CC(=O)c1c[nH]c(C(=O)NCc2ccccc2Cl)c1
    -17	-0.1	-1	?	·	6
CN(c1ccc(C(=O)N2CCN(c3ccccc3F)CC2)cc1)S(=O)(=O)c1ccccc1
    -6	2.3	-8	-2	3	15
CCOC(=O)c1sc(NC(=O)CSc2nncs2)c(C(=O)OCC)c1C
    -7	6.4	1	-8	7	3
Cc1ccc(OCC(=O)NNC(=O)Cc2ccc(S(=O)(=O)N3CCOCC3)s2)cc1
    6	-0.6	0	-7	-7	-7
CC1(C)CC(=O)C2=C(C1)c1c(ccc3ccccc13)NC2c1ccc(Br)o1 (stereo not drawn)
    0	2.2	6	7	3	8
CC(=O)NC(Cc1cccc(F)c1)C(=O)NC1CCN(C(=O)Nc2ccccc2)CC1 (stereo not drawn)
    -7	0.6	9	-8	14	11
Cc1ccc(C2=N/C(=C\N(C)C)C(=O)O2)cc1
    -8	1.3	-8	-10	-8	-3
O=C(C1CCCO1)N1CCN(Cc2c(O)ccc3ccccc23)CC1 (stereo not drawn)
    23	-0.1	0	0	-1	-8
CC1CCN(C(=O)c2ccccc2NC(=O)Nc2ccccc2)CC1
    -13	0.3	0	12	9	-5
CCc1nc(SCC(=O)N2CCCc3ccccc32)c2oc3ccccc3c2n1
    -11	1.4	8	-1	-2	10
Cc1ccc(O)c(C(=O)CC(=O)c2cccc(F)c2)c1
    ?	-0.3	-6	-6	-3	0
CC(C)CCOc1ccc(C(=O)NCC(c2ccco2)N(C)C)cc1 (stereo not drawn)
    -2	1.0	17	-8	-8	31
CC1CCCN(CCCNC(=O)C2CC(=O)N(c3ccc(F)c(Cl)c3)C2)C1 (stereo not drawn)
    -13	-0.1	-1	-8	2	-25
Nc1cccc2nsnc12
    -3	0.7	0	21	-8	5
O=C(CCl)N(CCCNC(=O)C(F)(F)F)c1ccc([N+](=O)[O-])cc1
    -13	-0.1	15	9	2	-7
CCC(C(=O)NCCCc1ccccc1)n1nc(C)c2c(C)n(-c3ccccc3)nc2c1=O (stereo not drawn)
    -13	-1.6	0	12	-3	-1
COc1ccc(S(=O)(=O)N2CCOCC2)cc1NC(=O)Cc1c(Cl)cccc1Cl
    -12	3.1	-1	-13	-2	1
CC(=O)Nc1ccc(S(=O)(=O)NC(CC(=O)NCCC2=CCCCC2)C(C)C)cc1 (stereo not drawn)
    -5	-0.9	-2	·	5	-27
Cc1ccc(-c2nnc(NCCCO)c3ccccc23)cc1
    -11	·	2	17	4	·
COc1cccc(C(=O)COC(=O)C2CC(=O)N(c3ccc(Oc4ccccc4OC)cc3)C2)c1 (stereo not drawn)
    -4	2.0	1	6	3	4
Cc1cc(C)n(-c2nc(C)nc(NCc3ccccc3)n2)n1
    -43	-1.0	-1	6	-6	20
CC(C)=CCc1c(O)cc2c(=O)c3ccc(O)cc3oc2c1O
    -36	·	-17	·	-16	·
COc1ccc(/C(C)=N/OC/C(O)=C(\C#N)c2nc3ccccc3[nH]2)cc1
    -11	0.5	18	-11	4	-21
Cn1c(=O)c2c(nc(SCC(=O)N3c4ccccc4CCc4ccccc43)n2C)n(C)c1=O
    -9	-0.1	5	3	-4	-5
O=C(CCC(=O)OCC(=O)c1ccc(C(F)(F)F)cc1)OCC(=O)c1ccc(C(F)(F)F)cc1
    -4	-0.2	-6	-7	17	16
CCCCOC(=O)Nc1nnc(CCOCC)s1
    -33	0.4	-10	5	-11	3
CCn1c(=O)c(NC(=O)c2ccccc2)c2n(c1=S)CCCCC2
    ?	0.4	-23	1	5	-19
Cc1cc(NC(=O)c2ccco2)ncc1NC(=O)Cc1ccccc1
    -11	0.0	4	1	1	-3
COc1cccc(OC)c1C(=O)Nc1cccc(-n2cnnn2)c1
    -6	0.0	-2	3	·	3
COc1ccc(N2CCN(C(=O)c3cccc(NC4=NC5CS(=O)(=O)CC5S4)c3)CC2)cc1 (stereo not drawn)
    -9	0.4	3	2	-1	10
N#Cc1c(NC(=O)CSc2ncn(-c3ccccc3)n2)sc2c1CCCC2
    4	1.2	-2	-3	5	-2
COC(=O)c1ccccc1NC(=O)c1ccccc1N(C)S(C)(=O)=O
    0	0.4	-1	6	5	-17
Cc1ccc(NC(=O)COc2ccccc2)c(NC(=O)c2ccccc2C)c1
    -6	4.1	5	·	-1	5
COc1cc(C)nc(N(Cc2ccccc2)S(=O)(=O)c2ccccc2)n1
    7	2.2	16	-2	11	43
CCOC(=O)c1ccc(-c2ccc3c(c2)CCC3)nc1C
    -11	0.1	46	6	·	17
CCn1cc(CN(C)S(=O)(=O)c2cccc([N+](=O)[O-])c2)cn1
    1	-0.5	-1	-4	2	-24
CN1C(=O)CSc2ccc(NC(=O)NCCC3=CCCCC3)cc21
    -28	0.1	-1	-12	10	-22
Cc1ccc(-n2c(-c3ccncc3)nnc2-c2cccs2)cc1
    -1	0.5	-1	·	5	-9
CC1=C(C(=O)Nc2ccccc2C(=O)NC2CCC(C)CC2)SCCO1 (stereo not drawn)
    -41	-0.5	-6	-33	-3	-9
O=C(NC1CCSc2ccccc21)c1ccc(F)c(S(=O)(=O)N2CCOCC2)c1 (stereo not drawn)
    -20	1.7	0	-1	0	-1
Cc1cccc(C(=O)Oc2ccc(/C=N/NC(=O)c3ccc(O)cc3)cc2)c1
    ?	2.9	-10	17	14	1

Record cards, from the list above. Order of screens: D2 PAM | TRPML1 ag | Six1-Eya2 inh | TRPV1 PAM | CtBP-E1A inh | TRPML1 blocker
`COc1c(S(=O)(=O)Nc2cccnc2)ccc(Cl)c1Cl` as listed: -8 | -0.5 | 0 | 10 | 8 | 19
`COc1cccc(C(=O)COC(=O)C2CC(=O)N(c3ccc(Oc4ccccc4OC)cc3)C2)c1` (stereo not drawn) as listed: -4 | 2.0 | 1 | 6 | 3 | 4

Screens from PubChem BioAssay.
